Screening data as filed in PubChem.
HPGD inh – qHTS Assay for Inhibitors of HPGD (15-Hydroxyprostaglandin Dehydrogenase). 15-hydroxyprostaglandin dehydrogenase [NAD(+)] (Homo sapiens), P15428. purified HPGD, NADH fluorescence kinetic, PGE2 substrate. Potency, µM, inactives show top-dose activity change, negative = inhibition, most hits filed as inhibitors. 150,000 compounds, 4.3% hits. AID 894, 2007; active = well fitted inhibition curve with a large enough effect (not every such curve was filed as active); inconclusive = small, poorly fitted or top-dose-only effect, or another doubt; inactive = no such curve, though single readings can be large or run the other way;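 further: top concentration of the series not given in the record; plate controls included wells without enzyme; inactives centre near -10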
Target sequence (P15428 whole entry, looked up): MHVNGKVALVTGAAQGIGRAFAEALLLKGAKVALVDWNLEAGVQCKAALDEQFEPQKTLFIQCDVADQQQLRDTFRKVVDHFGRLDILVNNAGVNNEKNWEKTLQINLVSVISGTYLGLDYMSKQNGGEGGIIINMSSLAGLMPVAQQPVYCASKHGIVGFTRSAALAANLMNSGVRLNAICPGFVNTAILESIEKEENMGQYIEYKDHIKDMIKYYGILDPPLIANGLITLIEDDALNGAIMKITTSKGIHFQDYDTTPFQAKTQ
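NADH formation kinetics: reaction with 30 uM PGE2 and 1 mM NAD+ (final), 20 nM enzyme, Tris-HCl pH 8 with Tween 20, after 15 min compound preincubation at room temperature. Fluorescence change, last versus first of five reads.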
* = called active by the depositor; ? = inconclusive. On the % scale 0 is the no-effect control and ±100 the full control effect; potency means the concentration at half of the fitted maximal effect. An excerpt (hit frequency here may not be typical).

no. | smiles | HPGD inh
1 | CCOc1ccc(C2CC(c3ccc(OC)c(OC)c3)n3nc(N)nc3N2)cc1 (configuration not stated) | -10%
2 | O=C(CCCN1C(=O)CSc2ncccc21)N1CCN(Cc2ccccc2)CC1 | -3%
3 | CC(C)Oc1ccc(Cc2cnc(N)nc2N)cc1 | -11%
4 | Cc1cc(C(F)(F)F)nn1CC(=O)N1CCOCC1 | -11%
5 | Cn1c(N2CCN(C(=O)NCc3ccccc3)CC2)nc2ccccc21 | -8%
6 | CCOC(=O)C1(S(=O)(=O)c2ccc(Cl)cc2)CCN(Cc2ccc(Cl)cc2)CC1 | -10%
7 | C[C@@H]1CC[C@H]2[C@H](C)C3[C@H](C[C@H]4[C@@H]5CC=C6C[C@@H](O)CC[C@@]6(C)[C@@H]5C[C@@H](O)[C@]34C)N2C1 (some centres not stated) | -2%
8 | CC1=C(C)CC(C(=O)Nc2nc(-c3ccc(F)cc3)c(C)s2)C(C(=O)O)C1 (configuration not stated) | 1%
9 | Cc1ccc(-c2noc(COc3ccc4c(c3)OCO4)n2)cc1 | -8%
10 | CCn1c2ccccc2c2cc(NC(=O)c3ccc([N+](=O)[O-])cc3)ccc21 | -14%
11 | Nc1nc2c(c(=O)[nH]1)N=C(CNc1ccc(C(=O)NC(CCC(=O)O)C(=O)O)cc1)CN2 (configuration not stated) | ?
12 | COc1ccc(OCC(=O)N2N=C(C(F)F)CC2(O)C(F)F)cc1 (configuration not stated) | -2%
13 | COc1ccccc1C(=O)Nc1ccc(OCc2nnc3c4ccccc4c(C)nn23)cc1 | -27%
14 | COc1ccc(-n2c(SCC(=O)Nc3ccc(C(=O)O)cc3)nnc2-c2cccs2)cc1 | ?
15 | CCC(C)(C(=O)NC1CCCC1)N(C(=O)c1ccccn1)c1ccc(C)cc1 (configuration not stated) | -12%
16 | COc1ccc(OC)c(S(=O)(=O)n2nnc3cc(Cl)ccc32)c1 | -22%
17 | C[C@H]1Cc2c(COc3ccccc3)nc3c(c2CO1)CN(S(=O)(=O)c1ccc2c(c1)OCCN2C)CC3 | -10%
18 | O=C(NS(=O)(=O)c1ccccc1Cl)c1ccc[nH]1 | -6%
19 | Cc1nc2c(ccc3nc(NC(=O)Cc4ccccc4)sc32)s1 | -16%
20 | CCCOc1ccc(/C(O)=C2/C(=O)C(=O)N(CCN(CC)CC)C2c2ccncc2)cc1 (configuration not stated) | 0%
21 | FC(F)(F)c1ccc(N2CCOCC2)c(Nc2nc3ccccc3n3cnnc23)c1 | ?
22 | COc1ccc(C(C)=O)c2c1OCCO2 | -11%
23 | CC1(C)CC(=O)C=C(NCCc2ccc(S(N)(=O)=O)cc2)C1 | -9%
24 | O=C(COc1ccccc1)NNC(=S)NC(=O)c1ccc(Cl)cc1Cl | 35µM*
25 | COc1cccc(CS(=O)(=O)c2nnnn2C2CCCCC2)c1 | -2%
26 | COc1cccc(C(=O)Nc2ccc(C)cc2)c1 | -16%
27 | Cc1cccc(N/C(N)=N/c2nc3c(c(=O)[nH]2)CCCC3)c1 | -16%
28 | COc1ccc(C2C(C#N)=C(N)OC3=C2C(=O)CC(C)(C)C3)c(OC)c1OC (configuration not stated) | -1%
29 | CCCc1cc(=O)[nH]c(SCC(=O)N2CCN(S(=O)(=O)c3ccc(C)cc3C)CC2)n1 | -1%
30 | CCOC(=O)c1ccc(-n2cncn2)nc1 | -7%

Two entries from above, set out differently.
29. CCCc1cc(=O)[nH]c(SCC(=O)N2CCN(S(=O)(=O)c3ccc(C)cc3C)CC2)n1
  HPGD inh = -1%
12. COc1ccc(OCC(=O)N2N=C(C(F)F)CC2(O)C(F)F)cc1 (configuration not stated)
  HPGD inh = -2%

Continuation:
no. | smiles | HPGD inh
31 | Cc1sc2nc(CSCC(=O)Nc3ccccc3C#N)[nH]c(=O)c2c1C | -26%
32 | CC1=CC(C)(C)N(C(=O)CSc2nnc(-c3ccc(C)cc3)o2)c2ccc(C)cc21 | -9%
33 | CCn1c2ccccc2c2cc(NC(=O)CSc3nnc(-c4cccc(OC)c4)n3N)ccc21 | -14%
34 | CCNc1ncc2nc(-c3cc(F)cc(F)c3)c(=O)n(-c3ccccc3)c2n1 | ?
35 | Cc1ccc(-c2nnn(CC(=O)NC3CCCc4ccccc43)n2)cc1 (configuration not stated) | -1%
36 | COC(=O)c1ccccc1NS(=O)(=O)c1ccc2c3c(cccc13)C(=O)N2 | ?
37 | O=C(Nc1ccc2c(c1)OCO2)C1CCCN(S(=O)(=O)c2cccs2)C1 (configuration not stated) | -9%
38 | Cc1ccc(-c2nc3ccccc3[nH]2)cc1NC(=O)/C=C/c1ccco1 | -19%
39 | CCN1C(=O)CS/C1=C(\C#N)S(=O)(=O)c1ccccc1 | -1%
40 | COC(=O)c1ccc(NC(=O)CSc2nnc(C)n2-c2ccccc2)cc1 | -28%
41 | COc1ccc(NC(=O)C2(N(CC(C)C)C(=O)Cn3nnnc3N)CCCCC2)cc1 | -2%
42 | Cc1cc(C)c(O)c(-c2cc(C(=O)NCc3ccccc3)[nH]n2)c1 | -13%
43 | CCOC(=O)CCCOC(=O)c1ccc(S(=O)(=O)N(C)C)cc1 | -13%
44 | CC(/C=C/c1ccccc1)=N\NC(=O)c1ccc2c(c1)OCCO2 | -20%
45 | CCC(=NCCc1c(C)[nH]c2ccc(C)cc12)C1=C(O)CC(c2ccccc2)CC1=O (configuration not stated) | -22%
46 | O=C1NC(c2ccc(-c3ccccc3[N+](=O)[O-])o2)C(C(=O)c2ccccc2)C(O)(C(F)(F)F)N1 (configuration not stated) | -26%
47 | N#CCSc1nc2c(c(C3CC=CCC3)c1C#N)CCC2 (configuration not stated) | -3%
48 | CCOC(=O)N1CCN(C(=O)c2cn(C)c3ccc(S(=O)(=O)N4CCCC4)cc3c2=O)CC1 | -10%
49 | COC(=O)c1c(CCl)noc1C(=O)NCC1CCCO1 (configuration not stated) | -1%
50 | CCC(=O)NS(=O)(=O)c1cccnc1Nc1ccccc1Cl | -3%
51 | COc1ccccc1CN1CCC2(CC1)CCN(C(=O)c1csnn1)CC2 | -7%
52 | Cc1cnn(-c2ccc3nnc(-c4ccc(Cl)cc4)n3n2)c1 | ?
53 | O=C(Cc1cccs1)NCc1cccs1 | 16µM*
54 | COCCNC(=O)CN1C(=O)COc2ccc(Cl)cc21 | 4%
55 | O=C(CSc1nnc(-c2ccncc2)n1-c1ccc(F)cc1)NNC(=O)c1cccc(O)c1 | -14%
56 | CC1=C(C(=O)OCc2ccccc2)C(c2ccc(C3CCCCC3)cc2)NC(=O)N1CCCCCC(=O)O (configuration not stated) | -7%
57 | OCCN1CCN(c2ncnc3ccc(Br)cc23)CC1 | -15%
58 | CCn1c(COc2ccccc2C)nnc1SCC(=O)CC(=O)Nc1ccccc1 | -19%
59 | O=C1CCCN1c1cccc(Br)c1 | -14%
60 | O=C1CC(C2CCCO2)C(=O)N1c1ccccc1 (configuration not stated) | -7%

Among those listed so far, these contain bromine.
no. | smiles | HPGD inh
57 | OCCN1CCN(c2ncnc3ccc(Br)cc23)CC1 | -15%
59 | O=C1CCCN1c1cccc(Br)c1 | -14%

(continued)
no. | smiles | HPGD inh
61 | COC(=O)c1ccccc1NC(=O)N1CCN(C/C=C/c2ccccc2)CC1 | -9%
62 | COc1ccc(C2CC(O)(C(C)(C)O)NO2)cc1 (configuration not stated) | -9%
63 | COc1ccc(C2(O)CCN(CCCCOc3ccccc3)CC2)cc1 | -21%
64 | COCC(=O)NC1CCN(CC(=O)Nc2ccc(OC)cc2[N+](=O)[O-])CC1 | -11%
65 | CNC(=O)c1csc(-c2ccccc2)n1 | -9%
66 | CCOc1ccc(NC(=O)c2ccc(NC(=O)c3cn4c5c(c(N6CCN(C)CC6)c(F)cc5c3=O)OCC4C)cc2)cc1 (configuration not stated) | ?
67 | O=C(CC(Nc1ccc(F)cc1)C(=O)OCC(=O)c1cccs1)c1ccccc1 (configuration not stated) | -15%
68 | COc1cc(/C=C/C(=O)OCC(=O)NCC2CCCO2)ccc1OCC#N (configuration not stated) | ?
69 | Clc1ccc(NNc2ccnc3cc(Cl)ccc23)cc1 | -19%
70 | COCCn1c(C(=O)N(C)C)cc2c1C[C@H]1CN(C(=O)c3ccccc3)[C@@](Cc3ccc(F)cc3)(C(=O)OC)[C@@H]21 | -14%
71 | CCC(Sc1nc(=O)cc(N)n1-c1ccccc1)C(=O)Nc1cc(C)on1 (configuration not stated) | -3%
72 | Cc1cc(-n2c(=O)c(C#N)cc3c(=O)n4cccc(C)c4nc32)no1 | ?
73 | O=C(c1cccc(F)c1)N1CCN(C(=O)c2cc3ncc(Br)cn3n2)CC1 | -12%
74 | CC(C)n1c(SCC(=O)Nc2ccccc2N2CCCCC2)nc2c1c(=O)n(C)c(=O)n2C | 0%
75 | O=C(CN1CCOc2ccccc21)NCc1ccco1 | -27%
76 | CCC(=O)Nc1cc(C(=O)OCC(=O)c2ccccc2)ccc1C | -6%
77 | CCOC(=O)c1nn(-c2cccc(OC)c2)c2nc(Nc3ccccc3)cc(=O)n12 | 1%
78 | Cc1cc(C)n(Cc2ccccc2Cl)n1 | -10%
79 | C=C(C)C1Cc2c(C)nn(-c3ccccn3)c2C1 (configuration not stated) | -14%
80 | CC(=O)C1=C(C)NC(SCC(=O)c2ccc(F)cc2)=C(C#N)C1c1ccco1 (configuration not stated) | 25µM*
81 | Cc1cc(NC(=O)CSc2ccc3c(c2)OCCO3)no1 | -15%
82 | O=C(Nc1cccnc1)c1cccc(S(=O)(=O)N2CCOCC2)c1 | 1%
83 | CCOc1ccc2nc(SC3CC(=O)N(c4ccccc4)C3=O)sc2c1 (configuration not stated) | -22%
84 | CCOc1ccc(NC(=O)N2CC=C(n3c(=O)[nH]c4ccccc43)CC2)cc1 | -4%
85 | CCCC(CCC)=NNc1ccc(S(=O)(=O)Nc2ccccc2OC)cc1[N+](=O)[O-] | -19%
86 | COc1cc2cc(CN(C(=O)Nc3ccccc3)C3CCCC3)c(=O)[nH]c2cc1OC | ?
87 | O=C1C=CCCC1 | -6%
88 | CCOc1nc(C)ccc1-c1noc(-c2ccncc2)n1 | 4%
89 | O=C(NNc1ccccn1)C(=O)NNS(=O)(=O)c1ccc(Cl)cc1 | -8%
90 | Nc1nncn1C(=O)CCCOc1ccccc1 | -17%
91 | COCC(C)NC(=O)CSc1nc(-c2ccccc2)c(-c2ccccc2)o1 (configuration not stated) | -22%
92 | CCOC(=O)/C=C1\SCC(=O)N1CC(=O)NC(C)C | -4%
93 | CC1=NN(c2nc(-c3ccccc3)cs2)C(=O)C1 | -11%
94 | Cc1ccc(CNC(=O)/C=C/c2ccccc2Cl)cc1 | -9%
95 | O=C(COC(=O)CC1CCCC1)Nc1cc2c(cc1Cl)C(=O)c1ccccc1C2=O | -4%
96 | CC(=O)NCC(=O)OCC(=O)c1ccc(Br)cc1 | -8%
97 | CCCCOc1ccc(CN2CCC(O)CC2)cc1 | -20%
98 | Cc1ccccc1-c1nc(-n2ccnc2)c2ccccc2n1 | -10%
99 | COCCn1c(=O)[nH]c2cc(C(=O)NCC3CCCO3)ccc2c1=O (configuration not stated) | ?
100 | CCN(CC)S(=O)(=O)c1ccccc1/C=N\O | -15%
101 | O=C(CN1C(=O)COc2ccccc21)N1CCN(c2ccccc2F)CC1 | 2%
102 | Cc1cc(C(=O)CN2C(=O)NC(C)(c3ccccc3)C2=O)c(C)n1CC1CCCO1 (configuration not stated) | 0%
103 | CCn1c(SCC(=O)c2cc(C)ccc2C)nc2cc(S(=O)(=O)N3CCOCC3)ccc21 | 1%
104 | O=C1c2ccccc2C(=O)N1CCc1csc(-c2cccc(Cl)c2)n1 | -8%
105 | NC(=O)[C@@H]1CCCNc2c(F)cc([N+](=O)[O-])cc2C(=O)N[C@@H](CCC(=O)O)C(=O)N[C@@H](CO)C(=O)N1 | -14%
106 | CC1(C)CC[C@]2(C(=O)O)CC[C@@]3(C)C(=CCC4[C@@]5(C)CCC(O)[C@@](C)(CO)C5CC[C@@]43C)C2C1 (some centres not stated) | -2%
107 | CNS(=O)(=O)c1cc(C(=O)OCC(=O)NC2CCCc3ccccc32)ccc1Cl (configuration not stated) | -6%
108 | CCOC(=O)COc1cc(OCC(=O)OCC)c2c(=O)cc(-c3ccccc3)oc2c1 | ?
109 | O=C(O)c1ccc(NS(=O)(=O)c2cc(C(=O)O)ccc2Br)cc1 | -5%
110 | O=C(NCc1ccccc1Cl)C1CCCN(S(=O)(=O)c2cnc[nH]2)C1 (configuration not stated) | 2%
111 | CCOC(=O)CSc1n[nH]c(-c2ccco2)n1 | ?
112 | Cc1ccc(/C=N/NC(=O)CSc2nnc(-c3ccccc3)n2-c2ccc(Cl)cc2)o1 | -1%
113 | Cc1onc(-c2c(F)cccc2Cl)c1C(=O)Nc1nnc(C2CC2)s1 | -12%
114 | Cc1ccc(C)n1NC(=O)c1ccccc1Cl | -5%
115 | Cc1nc([N+](=O)[O-])cn1-c1ccc(N)cc1 | -18%
116 | Cc1ccc(C(=O)COC(=O)CCCC(=O)NC2CCCCC2)cc1[N+](=O)[O-] | -23%
117 | COc1ccc(CNC(=O)CSCc2cnn(-c3ccccc3)c2-n2cccc2)cc1 | -11%
118 | CC(C)(C)C(=O)O/N=C1/C(=O)N(c2ccccc2)c2ccccc21 | -3%
119 | COc1ccc(-n2c(Cc3cc(=O)[nH]c(=O)[nH]3)nnc2SCc2ccccc2)cc1 | -11%
120 | COC(=O)c1cn(C(=O)OC)c2ccccc12 | -8%
121 | Cc1nn(C(=O)c2cccnc2)c(C)c1C | -7%
122 | O=C(NC1CCCCC1)NC1CC2CCCC(C1)N2C1CCCC1 (configuration not stated) | -8%

Two entries from above, with the structure last:
| nr | HPGD inh | SMILES |
| --- | --- | --- |
| 53 | 16µM* | O=C(Cc1cccs1)NCc1cccs1 |
| 63 | -21% | COc1ccc(C2(O)CCN(CCCCOc3ccccc3)CC2)cc1 |
